Assay outcomes deposited in PubChem by several laboratories.
Yeast UUG start: modulators of start codon recognition fidelity in yeast; S. cerevisiae UUG-firefly luciferase reporter, luminescence/redox ratio; activity score, % at 18.7 µM; 350,000 compounds, 0.13% hits; AID 602363;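 active means replicate mean at a twofold rise or more, about +100% in these data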;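 further: firefly luciferase made from a UUG start codon reports start codon fidelity; reporter light over untreated wells divided by growth signal over untreated wells; some hits fall short of that in this replicate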
Env fusion inh: inhibitors of HIV Env-mediated cell fusion; HeLa-JRFL Env/CEM21 cell fusion, luciferase; inhibition, % at 12.3 µM; 360,000 compounds, 1.1% hits; AID 651610;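 active means mean replicate inhibition score of at least 50 and every replicate individually at or above 50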;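 further: 0% = plate neutral controls and 100% = maraviroc near 300 nM; one replicate is shown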
MT1-MMP act inh: blocks activation of human MT1-MMP | P50281 | HT1080 RFP-PRO-GFP cells, GFP/RFP ratio fluorescence, overnight; percent of plate control window, DMSO zero | GFP/RFP ratio change, % at 20 µM | 360,000 compounds, 0.061% hits | AID 651647;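 active means GFP/RFP ratio change of at least 30% with cell ATP level not reduced by more than half and red fluorescence within 50% of control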; further: strong numbers were not always called active
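Assay system – RFP-PRO-GFP reporter HT1080 cells · Compound dosing – single dose of 20 µM compound, 1% DMSO final · Incubation – overnight compound exposure at 37 °C · Measure – GFP/RFP fluorescence ratio · Benchmarks – DMSO wells and RFP-L50D-GFP cells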
PABP polyA inh: blocks human PABP binding to poly(A) RNA. P11940. fluorescence polarization. inhibition, % at 35 µM. 290,000 compounds, 1% hits;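 active means 50% or more with normal probe brightness, or confirmed in later tests; about a fifth of its hits are not listed in these tables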;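 further: calls also rest on retests at 20 µM and on dose response follow-up; controls were probe without protein and protein plus probe with vehicle; some compounds called inactive have numbers as strong as hits; many hits fall short of the cut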
eIF4H inh: inhibitors of RNA binding by human eIF4H | 290,000 compounds, 0.94% hits | eIF4H fluorescence polarization binding assay | Q15056 | inhibition, % at 35 µM;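 active means 50% or more with normal probe brightness, or confirmed in later tests; about a fifth of its hits are not listed in these tables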;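 further: calls also rest on retests at 20 µM and on dose response follow-up; 0% = protein and probe with vehicle and 100% = probe without protein; strong numbers were not always called active; many hits fall short of the cut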
CSC inhib: blocks cancer stem cells. inhibition, % at 7.5 µM. AID 2717. cancer stem cell-like cells viability, luminescence. 300,000 compounds, 1.1% hits;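 active means mean at 75% or more and at least half the replicates too; tested in HMLE shEcad cells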;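 further: 0% = median of negative and 100% = median of positive control wells; the first replicate is given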
Rce1 inh: yeast Ras-converting enzyme inhibition. yeast membranes, quenched prenylated peptide cleavage fluorescence. 290,000 compounds, 0.27% hits. calls only. AID 2563. Q03530;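 active means fall in fluorescence gain of 50% or more versus controls, with final raw signal at or below 3038400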;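 further: plate controls were neutral control wells for no effect and wells lacking membranes for full effect; tested at 10 µM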
Target sequence (Q03530 whole entry, looked up): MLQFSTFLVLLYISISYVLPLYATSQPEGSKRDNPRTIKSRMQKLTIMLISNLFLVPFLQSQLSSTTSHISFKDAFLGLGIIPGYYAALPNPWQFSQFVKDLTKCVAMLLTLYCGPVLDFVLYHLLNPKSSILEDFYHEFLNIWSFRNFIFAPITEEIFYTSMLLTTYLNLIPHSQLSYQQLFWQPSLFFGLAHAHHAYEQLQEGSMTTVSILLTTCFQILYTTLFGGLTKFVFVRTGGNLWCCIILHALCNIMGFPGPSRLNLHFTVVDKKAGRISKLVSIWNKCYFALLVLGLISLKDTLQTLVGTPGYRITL
eIF4H inh retest: further read-out of eIF4H inh, marked with its call; inhibition, %; compound at 20 µM; confirmation average;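 mean of two retest wells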
PABP polyA inh retest: second read-out of PABP polyA inh, no call of its own (marks repeat the call); inhibition, %; compound at 20 µM; confirmation repeats;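 mean of two retest wells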
MT1-MMP act inh RFP: also measured in MT1-MMP act inh; calls as there; RFP signal change, %; measured here: RFP expression control read;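 0 = vehicle wells; hits needed this value within 50% of zero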
* marks the source's active call; other numbers are inactive results; i = inactive; nt = no result given; + = active, no number.

SMILES | Yeast UUG start | Env fusion inh | MT1-MMP act inh | MT1-MMP act inh RFP | PABP polyA inh | eIF4H inh | CSC inhib | Rce1 inh | others
O=C(/C=C/c1cccc([N+](=O)[O-])c1)Nc1cccc(NC(=O)c2cccs2)c1 | -10 | -14 | 8 | 2 | 3 | 1 | 50 | i
Cc1c(C(=O)NCc2ccc3c(c2)OCCO3)sc(=O)n1Cc1ccc(S(=O)(=O)N(C)C)cc1 | -16 | 46 | -3 | -26 | nt | nt | nt | nt
COc1ccc(CC(=O)NNC(=O)COc2ccc(C)cc2)cc1S(=O)(=O)N1CCOCC1 | -12 | nt | -1 | 2 | nt | nt | -14 | i
COc1ccc2[nH]c3c(c2c1)CCN1C(=O)N([C@@H](C)C(=O)NCC2CCCO2)C(=O)[C@]31C (some centres undefined) | -2 | nt | 3 | 3 | 2 | 12 | -17 | i
N=C1SC(c2ccccc2)C(=O)N1c1ncc(Cc2ccccc2)s1 (centres undefined) | -16 | 11 | 4 | 6 | -3 | 8 | 65 | i
O=S(=O)(c1cccc(C(F)(F)F)c1)N1CCC(c2cc(-c3cccc4ccccc34)n[nH]2)CC1 | -16 | 2 | 2 | -6 | 1 | 7 | 71 | i
C#CCOc1ccc(CNC[C@H]2O[C@@H](n3ccc(N)nc3=O)[C@H](O)[C@@H]2O)cc1 | -2 | -45 | 0 | 3 | nt | nt | nt | nt
CCOc1ccc(S(=O)(=O)N2CCN(c3ncccn3)CC2)cc1 | 1 | 3 | 0 | -5 | -10 | 14 | 8 | i
CC(C)Cc1ccc(S(=O)(=O)Nc2ccc3[nH]c(=O)[nH]c3c2)cc1 | -4 | 14 | 0 | -18 | -4 | -8 | -7 | i
Nc1ccc(S(=O)C(F)(F)F)cc1 (centres undefined) | nt | 5 | -2 | 0 | -14 | 0 | 5 | i
COC(=O)c1ccc(CNC(=O)COC(=O)c2cc(Cl)nc(Cl)c2)cc1 | -16 | -3 | 1 | 6 | -4 | 1 | nt | i
CC1CCCCC1NC(=O)CN(C)S(=O)(=O)c1cccc2cccnc12 (centres undefined) | -7 | 12 | 1 | 3 | 1 | -6 | -17 | i
COc1ccc(OC)c(NC(=O)Nc2ccc(O)c3ccccc23)c1 | -18 | 24 | 0 | 0 | nt | nt | 2 | i
COc1ccc(-c2ccnc(-c3ccncc3)n2)cc1 | -18 | -11 | 0 | 0 | 2 | 6 | 53 | i
Cc1ccc(C(=O)NC(=S)N2CCN(C)CC2)cc1Br | -12 | 5 | 1 | 10 | -4 | 4 | nt | i
CCOC(=O)C(=O)NNc1ccc(F)cc1 | 4 | 3 | 1 | 3 | 7 | 13 | 101* | i
COc1cc(CNc2ccc(S(N)(=O)=O)cc2)ccc1OCC(=O)NC1CCCCC1 | -7 | 19 | -1 | -4 | -14 | -7 | 0 | i
CCOC(=O)C1=C(COC(=O)Cc2c(F)cccc2Cl)NC(=O)NC1C (centres undefined) | -4 | -59 | 5 | 2 | nt | nt | nt | nt
COc1ccc(N2C(=O)CCC(C(=O)N(C)C3CCCCC3)C2c2ccc(OC)c(OC)c2)cc1 (centres undefined) | nt | -54 | nt | nt | 3 | -1 | 1 | nt
Cc1occc1C(=O)NC1CCCCCCC1 | -9 | nt | 2 | 2 | -6 | 6 | -11 | i
Clc1ccc(-c2nnc3n2CCCC3)cc1Cl | -16 | -44 | -4 | 0 | 3 | -6 | 1 | i
COc1ccccc1/C=C1\SC(=S)N(CCC(=O)Nc2ccc(C(=O)O)c(O)c2)C1=O | nt | 9 | -2 | -1 | 15 | -11 | 4 | i
O=C(c1cccc(Cl)c1)N1CCC(=O)N(C(CO)Cc2ccccc2)CC1 (centres undefined) | -8 | -23 | 4 | -1 | nt | nt | -10 | i
COc1ccc(-n2c(SCC(=O)Nc3nccs3)nc3c(c2=O)SCC3)cc1 | -14 | -9 | -2 | 1 | -9 | -2 | -6 | i
COc1ccccc1N1CCN(C(=S)Nc2cccc(C)c2)CC1 | -31 | -1 | -3 | -4 | -14 | 0 | nt | i
COc1ccc(C2NC(C(=O)O)Cc3c2[nH]c2ccccc32)cc1OC (centres undefined) | -11 | -43 | -13 | -1 | 18 | 18 | 7 | i
CC(=O)C1C(=O)CC(C)(O)C(C(C)=O)C1c1ccccc1 (centres undefined) | -17 | -1 | -3 | 0 | 3 | 1 | -12 | i
CC(=O)N1c2ccc([N+](=O)[O-])cc2NC(=O)CC1C (centres undefined) | -10 | 18 | -4 | 3 | 1 | -11 | -7 | +
Cn1c(NC(=O)c2ccccc2Br)cc(=O)n(C)c1=O | -13 | -17 | 0 | 5 | -6 | -4 | -5 | i
CCOc1ccc(N2CC(C(=O)NCCCc3ccccc3)CC2=O)cc1 (centres undefined) | 9 | nt | -2 | -3 | nt | nt | -4 | nt
COc1cccc(C(=O)Cn2c(N3CCCCC3)nc3c2c(=O)n(C)c(=O)n3C)c1 | -16 | 5 | 2 | 0 | -1 | -5 | nt | i
O=C(N=C1SC2CS(=O)(=O)CC2N1Cc1ccc(F)cc1)C1CC1 (centres undefined) | 1 | -3 | -2 | 1 | 0 | -7 | 4 | i
Cc1ccc(O)c(CN(C)Cc2cc(C)ccc2O)c1 | -17 | -24 | 11 | 8 | nt | nt | nt | nt
CC(=O)Nc1ccc(S(=O)(=O)Nc2c(C)n(C)n(-c3ccccc3)c2=O)cc1 | -12 | nt | 7 | 2 | -8 | 2 | -8 | i
COc1ccc(C2/C(=C(/O)c3ccccc3)C(=O)C(=O)N2C)cc1 (centres undefined) | 4 | nt | 1 | 7 | 5 | -11 | 6 | i
CCCNC(=O)CN(C)S(=O)(=O)c1ccc(F)cc1 | -21 | -44 | -1 | 1 | 0 | -2 | 8 | i

A portion of the results above, for reference:
SMILES | Yeast UUG start | Env fusion inh | MT1-MMP act inh | MT1-MMP act inh RFP | PABP polyA inh | eIF4H inh | CSC inhib | Rce1 inh | others
COc1ccc(C2/C(=C(/O)c3ccccc3)C(=O)C(=O)N2C)cc1 (centres undefined) | 4 | nt | 1 | 7 | 5 | -11 | 6 | i
CCCNC(=O)CN(C)S(=O)(=O)c1ccc(F)cc1 | -21 | -44 | -1 | 1 | 0 | -2 | 8 | i

Remaining list, next part:
SMILES | Yeast UUG start | Env fusion inh | MT1-MMP act inh | MT1-MMP act inh RFP | PABP polyA inh | eIF4H inh | CSC inhib | Rce1 inh | others
Cc1cc(-c2nnc(SCC(=O)Nc3nc(-c4ccc(Cl)cc4)cs3)o2)no1 | -14 | -6 | -3 | -1 | -3 | 21 | -14 | i
O=C(Nc1cccc([N+](=O)[O-])c1)c1ccccc1 | -14 | 10 | 2 | 0 | 7 | -4 | 0 | i
COc1ccc(N2CCN(c3ccc([N+](=O)[O-])nc3)CC2)cc1 | nt | -9 | 2 | -2 | -6 | 3 | 15 | i
NC(=O)C1CCN(C(=O)C2(NC(=O)Nc3cccc(F)c3)CCCCC2)CC1 | -17 | 3 | -2 | 3 | 13 | -2 | -15 | i
Clc1ccccc1Cn1nnc2c(N3CCOCC3)nc(C3CC3)nc21 | 4 | nt | -3 | -8 | -3 | -6 | -3 | i
Cc1cc(C)n(C(=O)COc2ccccc2C)n1 | -15 | -37 | 3 | 15 | -3 | -2 | -6 | i
COc1ccc(C=O)cc1Cn1c(=O)n(CCC(=O)NCc2ccco2)c(=O)c2sccc21 | -14 | 17 | -2 | -2 | 8 | 4 | -8 | i
CN1C(=O)[C@H]2[C@@H](/C=C/c3ccccc3)N3C(=O)CN(CC4CC4)C(=O)[C@@]3(C)[C@H]2C1=O | -7 | 2 | 0 | 3 | 3 | 0 | 3 | i
COc1ccc2c(c1)C(=O)N(c1ccccc1OC)C(=O)C2 | nt | nt | -5 | 2 | 40 | 29 | 0 | i
CCc1ncc(C)[nH]1 | nt | nt | nt | nt | 8 | -6 | -5 | i
COC(=O)COc1ccc(S(=O)(=O)Nc2ccc(NC(C)=O)cc2)cc1 | -8 | -12 | -2 | -1 | -5 | -10 | -2 | i
C=CCCN(C1CCCC1)S(=O)(=O)c1ccccc1Br | -10 | 29 | -4 | -2 | -3 | -6 | -24 | i
CC(C)N(CCc1ccncc1)C(=S)Nc1cccc(Cl)c1 | nt | -13 | -1 | 5 | 12 | -5 | -8 | i
CCc1ccc(NCc2nc(-c3ccccc3)no2)cc1 | -18 | -6 | 8 | 9 | 3 | -9 | 0 | i
Cc1cc(NS(=O)(=O)c2ccc(NC(=O)N[C@H](C(=O)O)C(C)C)cc2)no1 | nt | 0 | 2 | 3 | -10 | -6 | -1 | i
O=c1ccccn1CCOc1ccccc1Cl | -10 | -3 | -3 | -1 | -8 | -14 | -1 | i
C/C(=N/NC(=O)c1cc(-c2ccc(Cl)s2)[nH]n1)c1ccco1 | -25 | -6 | 0 | -2 | -4 | 0 | 7 | i
CCNc1nc(NC(N)=S)nc(NC(C)(C)C)n1 | nt | -16 | 0 | 0 | -2 | -10 | -12 | i
Cc1ccccc1NC(=O)NCCCN1CCCC1=O | -11 | 3 | 1 | -2 | -10 | -7 | -16 | i
CCCn1nnc(NC(=O)c2cccnc2Cl)n1 | -7 | nt | -1 | 3 | 35 | 7 | 2 | i
O=C(Nc1nnc(S(=O)(=O)N2CCN(c3ccc(F)cc3)CC2)s1)c1ccccc1 | 2 | -5 | 9 | -2 | 9 | -9 | 26 | i
COCCCN(C(=O)c1cc(C)oc1C)c1c(N)n(CC(C)C)c(=O)[nH]c1=O | -4 | nt | 1 | 4 | nt | nt | -17 | nt
CC(C)CNC(=S)NNC(=O)c1ccc(OC(F)F)cc1 | nt | -27 | 3 | -2 | 14 | 2 | -8 | i
O=C(NCCCN1CCOCC1)c1cccs1 | -6 | -36 | -3 | -5 | 11 | 1 | 5 | nt
O=C(Nc1cc(C(F)(F)F)ccc1N1CCOCC1)c1ccco1 | -14 | nt | -7 | -3 | -4 | 0 | 0 | i
Nc1c(C(=O)NCC2CCCO2)sc2nc3c(c(-c4ccco4)c12)CC/C3=C\c1ccco1 (centres undefined) | -8 | 22 | 6 | -4 | 2 | 110* | nt | nt | eIF4H inh retest=80*;PABP polyA inh retest=45
COCCNc1nc(Nc2ccc(F)cc2)c2sccc2n1 | -5 | 4 | 3 | -10 | nt | nt | nt | nt
CCOCCCn1c(=S)[nH]c2cc(C(=O)NC3CCCC(C)C3C)ccc2c1=O (centres undefined) | -15 | 0 | 4 | 3 | -2 | -5 | -45 | i
COc1cc(C2=NOC(C(=O)Nc3ccc(C(C)=O)cc3)C2)cc(OC)c1OC (centres undefined) | -1 | -23 | 2 | 5 | 0 | -4 | -9 | i
Nc1nc(N)c2sc3nc4c(cc3c2n1)CCC4 | -2 | nt | 9 | 5 | -6 | -3 | nt | i
Fc1ccc(C(c2nnnn2C2CCCC2)N2CCc3ccccc32)cc1 (centres undefined) | -1 | -71 | -12 | -8 | 3 | 1 | 12 | i
Cc1ccc(S(=O)(=O)N(C)c2ccc(OCc3cccc(C)c3)cc2)cc1 | -1 | 12 | -7 | -4 | 4 | -10 | 77* | i
Cc1ccc(-n2nnnc2SC(C)C(N)=O)c(C)c1 (centres undefined) | 8 | -7 | 0 | 1 | -10 | -1 | -4 | i
CN1CCC(=C(c2ccc(Cl)cc2)c2ccccn2)CC1 | -12 | -1 | -13 | -2 | 12 | 7 | -9 | i
CC(C)Cn1c(SCC(=O)N2CCc3ccccc3C2)nc2cc(Cl)ccc2c1=O | -16 | nt | -5 | 1 | 1 | 3 | 32 | i
Cc1ccc(SC[C@H](c2ccccc2)N2CCN(CCc3ccccc3)CCC2=O)cc1 | -10 | -22 | -1 | 0 | 3 | -2 | 21 | i
Cn1c2ccccc2c(=O)c2c(=O)n(-c3ccccc3)c(C3CCCCC3)nc21 | nt | nt | -18 | -16 | 6 | 5 | -7 | i
C/C(=N\NC(=O)c1ccccc1)c1cccc(Br)c1 | nt | -30 | 0 | 5 | -4 | 4 | 2 | i
